Source: PubChem
YB-1 expression = YB-1 expression inhibition | AID 434959 | delta delta Cp (YB-1 minus CDIP) (no concentration beside the values) | U2OS, qRT-PCR YB-1 vs CDIP delta delta Cp, 16 h; hits give high values; zero = DMSO, each unit about twofold | 0.37% of 30,000 active;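 active = delta delta Cp rounded down to an integer at or above 3, about 3 SD of DMSO wells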;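 also: higher means less YB-1 transcript or more CDIP transcript relative to DMSO; stock transfer was 100 nL into about 100 µL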
PD-1 reverse act = reversal of PD-1 mediated T-cell inhibition; AID 2316; primary human CD4 T cells, PD-L1 beads, CellTiter-Glo 96 h; activation, % (no concentration beside the values); 29,000 tested, under 10 active;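 active = replicate mean of 50% or more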;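 also: 0% = median vehicle wells and 100% = positive control; 100 nL library stock added to about 50 µL; numbers are from one replicate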
MITF inh = blocks MITF activity; inhibition, % (concentration not given with the values); TRPM1 promoter luciferase, luminescence, 24 h; 0.28% of 37,000 active;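 active = most replicates at 85% or more, or half of them and the mean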;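 also: human melanocyte line stably carrying TRPM1 promoter luciferase reporter; 0% = vehicle wells and 100% = a positive control; the first replicate is given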
Hedgehog inh = blocks Sonic Hedgehog signaling; Shh-LIGHT2 Gli-luciferase reporter, 30 h; inhibition, % (test concentration not listed); 2.1% of 22,000 active; AID 2313;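 active = replicate mean of 65% or more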;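 also: pathway switched on by Shh-conditioned medium diluted 1 in 25 in low serum; 100 nL library stock added to about 40 µL; 0% = median of neutral wells and 100% = positive control level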
The depositor's hits bear a star.

`COc1ccc(CN(C)C[C@@H]2Oc3ccc(NC(=O)Nc4c(C)noc4C)cc3C(=O)N([C@H](C)CO)C[C@H]2C)cc1` gave YB-1 expression -0.21, PD-1 reverse act -0.1, MITF inh 14 and Hedgehog inh -8.
Screening C[C@@H]1CN([C@H](C)CO)C(=O)Cc2cc(NC(=O)CCCCCC(=O)Nc3ccccc3N)ccc2O[C@@H]1CN(C)C(=O)NC1CCCCC1 returned YB-1 expression -0.13, PD-1 reverse act -0.4 and MITF inh -16.
Screening N#CC(=C(/N)Sc1ccccc1N)/C(C#N)=C(\N)Sc1ccccc1N returned YB-1 expression 2, MITF inh 35 and Hedgehog inh 5.
Screening CS(=O)(=O)N(CC(=O)Nc1ccccc1Sc1ccccc1)c1ccc(F)cc1 returned PD-1 reverse act -0.1 and MITF inh 14.
For COc1ccc(NC(=O)c2cc3cc(OC)ccc3oc2=N)cc1 the results were YB-1 expression -0.75, PD-1 reverse act 0.0 and MITF inh -9.
For C[C@H]1CN([C@@H](C)CO)C(=O)c2cc(NC(=O)Cc3ccccc3)ccc2O[C@H]1CN(C)CC1CCCCC1 the results were YB-1 expression 0.058, PD-1 reverse act -0.6 and MITF inh -3.
Screening C[C@@H]1CN([C@H](C)CO)C(=O)c2cccc(NC(=O)Nc3cccc4ccccc34)c2O[C@@H]1CN(C)C(=O)Nc1ccc2c(c1)OCO2 returned YB-1 expression 0.37, PD-1 reverse act 0.2, MITF inh 8 and Hedgehog inh -3.
`C[C@H](CO)N1C[C@H](C)[C@H](CN(C)Cc2ccc(C(F)(F)F)cc2)Oc2c(NC(=O)Nc3ccccc3)cccc2C1=O` gave YB-1 expression -0.034, MITF inh 1 and Hedgehog inh -28.
C[C@@H]1CN([C@H](C)CO)C(=O)Cc2cc(NC(=O)NC3CCCCC3)ccc2O[C@H]1CN(C)S(C)(=O)=O was read as YB-1 expression -0.58, PD-1 reverse act 2.3, MITF inh 3 and Hedgehog inh -45.
`Cc1ccc(S(=O)(=O)Nc2ccc3c(c2)C(=O)N([C@H](C)CO)C[C@@H](C)[C@H](CN(C)Cc2ccc4c(c2)OCO4)O3)cc1` gave YB-1 expression 0.43, PD-1 reverse act -0.5, MITF inh -9 and Hedgehog inh 44.
Screening COC(=O)c1ccccc1NC(=O)CSc1nnc(C23CC4CC(CC(C4)C2)C3)n1C returned PD-1 reverse act 1.5 and MITF inh -25.
`C[C@H](CO)N1C[C@H](C)[C@H](CN(C)Cc2ccc(Oc3ccccc3)cc2)Oc2ccc(NC(=O)Cc3cn(C)c4ccccc34)cc2C1=O` gave YB-1 expression 0.1, PD-1 reverse act -3.4, MITF inh 20 and Hedgehog inh 43.

Brought forward from above: 3 entries, followed by the next part.
`Cc1ccc(S(=O)(=O)Nc2ccc3c(c2)C(=O)N([C@H](C)CO)C[C@@H](C)[C@H](CN(C)Cc2ccc4c(c2)OCO4)O3)cc1` gave YB-1 expression 0.43, PD-1 reverse act -0.5, MITF inh -9 and Hedgehog inh 44.
Screening COC(=O)c1ccccc1NC(=O)CSc1nnc(C23CC4CC(CC(C4)C2)C3)n1C returned PD-1 reverse act 1.5 and MITF inh -25.
`C[C@H](CO)N1C[C@H](C)[C@H](CN(C)Cc2ccc(Oc3ccccc3)cc2)Oc2ccc(NC(=O)Cc3cn(C)c4ccccc34)cc2C1=O` gave YB-1 expression 0.1, PD-1 reverse act -3.4, MITF inh 20 and Hedgehog inh 43.
Screening CSc1nc(Nc2cccc(C(F)(F)F)c2)cc(C(F)(F)F)c1C#N returned YB-1 expression -0.1, PD-1 reverse act 0.3, MITF inh 9 and Hedgehog inh -4.
For COc1ccc(NC(=O)Nc2cccc3c2O[C@@H](CN(C)S(C)(=O)=O)[C@@H](C)CN([C@@H](C)CO)C3=O)cc1 the results were YB-1 expression -0.037, PD-1 reverse act 0.7, MITF inh -12 and Hedgehog inh -34.
Screening C=CCNC(=O)c1cnn2c(C(F)(F)F)cc(-c3cccs3)nc12 returned YB-1 expression 0.12, PD-1 reverse act -0.5, MITF inh -3 and Hedgehog inh 32.
For C[C@@H]1CN([C@H](C)CO)C(=O)c2cccc(NC(=O)CCCCCC(=O)Nc3ccccc3N)c2O[C@@H]1CN(C)Cc1ccc2c(c1)OCO2 the results were YB-1 expression 0.025, PD-1 reverse act 0.3 and MITF inh 14.
Screening COc1cc(O)c2c(=O)c(O[C@@H]3O[C@@H](CO)[C@H](O)[C@H]3O[C@@H]3O[C@@H](C)[C@H](O)[C@@H](O)[C@H]3O)c(-c3ccc(O)cc3)oc2c1 returned YB-1 expression 0.04, PD-1 reverse act 0.0, MITF inh 0 and Hedgehog inh -17.
`C[C@@H]1CN([C@H](C)CO)C(=O)Cc2cc(NC(=O)Cn3cnnn3)ccc2O[C@@H]1CN(C)S(=O)(=O)c1cccs1` gave YB-1 expression -0.096, PD-1 reverse act 0.9, MITF inh -3 and Hedgehog inh 49.
`COc1ccc(NC(=O)Nc2cccc3c2O[C@@H](CN(C)CC2CCCCC2)[C@H](C)CN([C@H](C)CO)C3=O)cc1` gave YB-1 expression -0.12, MITF inh 8 and Hedgehog inh -14.
`O=C(Nc1cccc(CCc2ccccn2)c1)c1ccc(Cl)cc1` gave PD-1 reverse act -0.8 and MITF inh 6.
`C[C@H](CO)N1C[C@H](C)[C@@H](CN(C)C(=O)NC2CCCCC2)Oc2ccc(NC(=O)Cc3cn(C)c4ccccc34)cc2C1=O` gave YB-1 expression -0.26, MITF inh 12 and Hedgehog inh 11.
`CC(C)NC(=O)Nc1ccc2c(c1)CC(=O)N([C@H](C)CO)C[C@@H](C)[C@@H](CN(C)Cc1ccc(C(=O)Nc3ccccc3N)cc1)O2` gave YB-1 expression -0.02, PD-1 reverse act -0.4 and MITF inh 9.
For COc1ccc(NC(=O)Nc2ccc3c(c2)CC(=O)N([C@@H](C)CO)C[C@@H](C)[C@@H](CN(C)CC2CC2)O3)cc1 the results were YB-1 expression -0.53, PD-1 reverse act 0.5 and MITF inh -13.
For Nc1nnc(SCC(=O)Nc2ccc(F)c(Cl)c2)s1 the results were PD-1 reverse act 0.3 and MITF inh -30.
`COc1ccc(CN(C)C[C@@H]2Oc3ccc(NC(=O)Nc4cccc5ccccc45)cc3C(=O)N([C@@H](C)CO)C[C@H]2C)cc1` gave YB-1 expression -0.33, PD-1 reverse act -0.3, MITF inh 10 and Hedgehog inh -8.
For O=C(Nc1ccc(Cl)cc1Cl)C1CC(=O)n2ncnc2N1 (stereo not drawn) the results were PD-1 reverse act 1.0 and MITF inh -12.
`COC(=O)C1=CO[C@@H](O[C@@H]2O[C@H](CO)[C@@H](O)[C@H](O)[C@H]2O)[C@H]2[C@@H]1[C@H](OC(C)=O)C[C@]2(C)O` gave YB-1 expression 0.43, PD-1 reverse act 1.1, MITF inh -8 and Hedgehog inh -26.
C[C@@H]1CCCCO[C@@H](CN(C)CC2CC2)[C@@H](C)CN([C@H](C)CO)C(=O)c2cc(NC(=O)Nc3ccc(C(F)(F)F)cc3)ccc2O1 was read as YB-1 expression 0.1, PD-1 reverse act -2.7, MITF inh -12 and Hedgehog inh -19.
Screening C[C@@H]1CN([C@@H](C)CO)C(=O)c2cccc(NC(=O)c3cnccn3)c2O[C@@H]1CN(C)C(=O)Nc1ccccc1 returned YB-1 expression 0.21, PD-1 reverse act -1.5, MITF inh -11 and Hedgehog inh 1.
For COc1ccccc1NC(=O)C1=C(C)Nc2ncnn2C1c1ccccc1C(=O)O (stereo not drawn) the results were PD-1 reverse act 0.8 and MITF inh 38.
C[C@H]1CN([C@@H](C)CO)C(=O)Cc2cc(NS(=O)(=O)c3ccccc3)ccc2O[C@H]1CN(C)CC1CC1 was read as YB-1 expression -0.49, MITF inh -10 and Hedgehog inh -31.
For O=C(c1cc2nc(-c3ccco3)cc(C(F)(F)F)n2n1)N(Cc1ccccc1)Cc1ccccc1 the results were YB-1 expression 0.2, PD-1 reverse act 3.2 and MITF inh -3.
`C[C@H]1CN([C@@H](C)CO)C(=O)c2cc(NC(=O)CCC(F)(F)F)ccc2O[C@H]1CN(C)Cc1ccccc1` gave YB-1 expression 0.045, PD-1 reverse act -0.8, MITF inh -1 and Hedgehog inh -16.
C=C(C)C(=O)O[C@H]1[C@H]2C(=C)C(=O)O[C@@H]2C[C@@H](C)/C=C/C(=O)[C@](C)(O)[C@@H]1OC(C)=O was read as YB-1 expression -1.1, PD-1 reverse act -14, MITF inh 90* and Hedgehog inh -10.
`C[C@H]1CN([C@@H](C)CO)C(=O)Cc2cc(NS(=O)(=O)c3cccs3)ccc2O[C@H]1CN(C)Cc1ccccc1` gave YB-1 expression -0.045, PD-1 reverse act 0.7, MITF inh 2 and Hedgehog inh 8.
For COc1ccc(CN(C)C[C@@H]2Oc3ccc(NC(=O)Nc4ccc(OC)cc4)cc3C(=O)N([C@H](C)CO)C[C@H]2C)cc1 the results were YB-1 expression 0.75, PD-1 reverse act 0.6, MITF inh -6 and Hedgehog inh -20.
Screening C[C@H](CO)N1C[C@H](C)[C@H](CN(C)Cc2ccc(C(=O)O)cc2)Oc2c(NC(=O)C3CC3)cccc2C1=O returned YB-1 expression 0.88, PD-1 reverse act 0.9, MITF inh -2 and Hedgehog inh 14.
C=C(C)Cc1c(C)nc(-c2ccc(Cl)cc2)nc1OC(=S)N(CC)CC was read as YB-1 expression 0.21, PD-1 reverse act -0.7 and MITF inh -1.
Screening C[C@@H]1CN([C@@H](C)CO)C(=O)c2cccc(NC(=O)Nc3ccc(F)cc3)c2O[C@H]1CN(C)Cc1ccc(C(=O)Nc2ccccc2N)cc1 returned YB-1 expression -0.079, PD-1 reverse act -6.0 and MITF inh 8.
COC(=O)CSc1nc(C)c2c(n1)CCCC2 was read as PD-1 reverse act 0.3 and MITF inh -8.
`C[C@@H]1CN([C@H](C)CO)C(=O)Cc2cc(NS(=O)(=O)c3cn(C)cn3)ccc2O[C@H]1CN(C)Cc1ccc(Cl)c(Cl)c1` gave YB-1 expression -0.51, PD-1 reverse act 0.2 and MITF inh -18.
Cc1ccccc1NC(=O)c1ccccc1NC(=O)c1ccccc1 was read as YB-1 expression 0.1, PD-1 reverse act 1.5, MITF inh 12 and Hedgehog inh -33.
For C[C@@H]1CCCCO[C@H](CN(C)Cc2ccncc2)[C@@H](C)CN([C@H](C)CO)C(=O)c2cc(NC(=O)Nc3ccc(C(F)(F)F)cc3)ccc2O1 the results were YB-1 expression -0.22 and MITF inh 22.
CNC[C@@H]1Oc2c(NC(=O)c3nc4ccccc4s3)cccc2C(=O)N([C@@H](C)CO)C[C@H]1C was read as YB-1 expression 0.091, PD-1 reverse act -0.6, MITF inh -12 and Hedgehog inh -73.
Screening Cc1c2cc(-c3cccs3)sc2nc2c(O)cc(=O)[nH]c12 returned PD-1 reverse act -0.6, MITF inh -7 and Hedgehog inh -25.
`C[C@@H]1CN([C@H](C)CO)C(=O)Cc2cc(NC(=O)Nc3cccc4ccccc34)ccc2O[C@H]1CN(C)Cc1ccc(C(=O)Nc2ccccc2N)cc1` gave YB-1 expression 0.016, PD-1 reverse act -1.8 and MITF inh 4.
For Cc1nc(SCC(N)=O)c2c(C)c(C)sc2n1 the results were PD-1 reverse act 3.1 and MITF inh -9.
COC(=O)CN(c1cccc(C(C)=O)c1)S(C)(=O)=O was read as PD-1 reverse act 0.5 and MITF inh -4.
For C[C@H]1CN([C@@H](C)CO)C(=O)Cc2cc(NS(=O)(=O)c3ccccc3)ccc2O[C@H]1CN(C)Cc1ccc(C(=O)O)cc1 the results were YB-1 expression -0.072, PD-1 reverse act 0.8, MITF inh 4 and Hedgehog inh 35.
C[C@@H]1CN([C@H](C)CO)C(=O)c2cccc(NC(=O)c3cnccn3)c2O[C@@H]1CN(C)S(C)(=O)=O was read as YB-1 expression -0.015, PD-1 reverse act 3.2, MITF inh -13 and Hedgehog inh -2.
For Cc1ccc(S(=O)(=O)Nc2ccc3c(c2)CC(=O)N([C@H](C)CO)C[C@H](C)[C@H](CN(C)C(=O)NC2CCCCC2)O3)cc1 the results were YB-1 expression 0.033, PD-1 reverse act -0.7, MITF inh -4 and Hedgehog inh -34.
C=C1[C@H](OC(=O)C(C)CC)[C@@H](OC(=O)C(C)C)[C@@H](O)C(C)(C)/C=C\[C@H](C)C(=O)[C@@]2(O)C[C@H](C)[C@H](O)[C@@H]2[C@H]1OC(=O)C(C)CC (stereo partly drawn) was read as YB-1 expression 0.58, PD-1 reverse act 56*, MITF inh -44 and Hedgehog inh 28.
Screening C[C@H]1CN([C@@H](C)CO)C(=O)c2cc(N(C)C)ccc2O[C@@H]1CN(C)Cc1ccc(C(F)(F)F)cc1 returned YB-1 expression 0.074, PD-1 reverse act -0.2, MITF inh 5 and Hedgehog inh 11.
Screening Cc1ccc(S(=O)(=O)Nc2ccc3c(c2)C(=O)N([C@H](C)CO)C[C@H](C)[C@@H](CN(C)S(=O)(=O)c2cccs2)OCCCC[C@@H](C)O3)cc1 returned YB-1 expression -0.62, MITF inh 7 and Hedgehog inh 52.

Of the compounds above, these have a cyano group.
Screening N#CC(=C(/N)Sc1ccccc1N)/C(C#N)=C(\N)Sc1ccccc1N returned YB-1 expression 2, MITF inh 35 and Hedgehog inh 5.
Screening CSc1nc(Nc2cccc(C(F)(F)F)c2)cc(C(F)(F)F)c1C#N returned YB-1 expression -0.1, PD-1 reverse act 0.3, MITF inh 9 and Hedgehog inh -4.

This is a subset; the hit share may differ from the screen's.
